Source: PubChem (Broad Institute)
DUX4 inh = blocks DUX4-driven transcriptional activation; 293T-iDUX4 ZSCAN4-Gaussia luciferase reporter, 24 h; active compounds read low; activity change, negative = inhibition, % (test concentration not listed); 37,000 compounds, 0.8% hits;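 active = -10% or lower and over 25 points stronger than a control reporter; inconclusive = -10% or lower with a smaller gap; inactive = above -10%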;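 also: 0% = median of neutral control wells and -100% = median of positive control wells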
DUX4 inh difference = also measured in DUX4 inh; calls as there; Gaussia minus Italica difference, %; measured here: selective DUX4 reporter inhibition;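 worked out from the two reporters; negative = selective loss of the DUX4 reporter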
DUX4 inh control = recorded beside DUX4 inh, whose call it bears; activity change, negative = inhibition, %; measured here: Italica tet-on control reporter;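 0 = neutral control and -100 = positive control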
An asterisk follows results filed as active; ? = inconclusive; . = no result given; & = joins results of further samples.

The opening two entries (preview)
DUX4 inh control,DUX4 inh,DUX4 inh difference,Compound
17.2,3.1,-14.2,COc1cccc(NC(=O)N2C[C@@H](O)COC[C@@H]3O[C@H](CC(=O)NCCCN4CCOCC4)CC[C@H]32)c1
12.8,-9.5,-22.3,Cc1ccccc1S(=O)(=O)N1CC(=O)N2[C@H](C1)[C@H](c1ccc(C#CCC3CCCC3)cc1)[C@@H]2CO

The whole of this part, from the start:
DUX4 inh control,DUX4 inh,DUX4 inh difference,Compound
17.2,3.1,-14.2,COc1cccc(NC(=O)N2C[C@@H](O)COC[C@@H]3O[C@H](CC(=O)NCCCN4CCOCC4)CC[C@H]32)c1
12.8,-9.5,-22.3,Cc1ccccc1S(=O)(=O)N1CC(=O)N2[C@H](C1)[C@H](c1ccc(C#CCC3CCCC3)cc1)[C@@H]2CO
-0.4,-3.6,-3.3,Cc1cccc(S(=O)(=O)N[C@H]2CC[C@H](CCn3cc(-c4ccccn4)nn3)O[C@H]2CO)c1
9.6,8.1,-1.5,CN(C)C(=O)c1ccc(-c2ccc3c(c2)[C@@H]2[C@@H](CCN2C(=O)c2ccccn2)[C@H](CO)N3)cc1
9.4,6.8,-2.6,CCCC#Cc1ccc([C@H]2[C@@H](CO)N3C(=O)CN(C(=O)CN4CCOCC4)C[C@H]23)cc1
5.1,10.5,5.4,CCC(=O)N1CC2(C1)CN(Cc1cccc(F)c1)[C@@H](CO)c1c2c2ccc(OC)cc2n1C
4.6,-0.2,-4.9,CCC(=O)Nc1ccc2c(c1)C(=O)N(C)C[C@H](OC)[C@@H](C)CN(CC1CCOCC1)[C@@H](C)CO2
.,?,.,O=C(C[C@@H]1CC[C@H]2[C@@H](COC[C@H](O)CN2CCC(F)(F)F)O1)NCc1ccc(Oc2ccccc2)cc1
2.3,1.0,-1.3,C[C@@H]1CCCCO[C@H](CN(C)CC2CCCCC2)[C@@H](C)CN([C@H](C)CO)C(=O)c2cc(NS(C)(=O)=O)ccc2O1
6.2,7.8,1.6,CCCC(=O)N1CC2(C1)CN(Cc1cccnc1)[C@@H](CO)c1[nH]c3cc(OC)ccc3c12

Compound profiles, as listed above:
`Cc1cccc(S(=O)(=O)N[C@H]2CC[C@H](CCn3cc(-c4ccccn4)nn3)O[C@H]2CO)c1` is listed with DUX4 inh control: -0.4; DUX4 inh: -3.6; DUX4 inh difference: -3.3
`CN(C)C(=O)c1ccc(-c2ccc3c(c2)[C@@H]2[C@@H](CCN2C(=O)c2ccccn2)[C@H](CO)N3)cc1` is listed with DUX4 inh control: 9.6; DUX4 inh: 8.1; DUX4 inh difference: -1.5

(next part)
DUX4 inh control,DUX4 inh,DUX4 inh difference,Compound
-4.4,3.3,7.6,Cc1noc(C)c1NC(=O)N(C)C[C@@H]1OCCCC[C@@H](C)Oc2ccc(N(C)C)cc2C(=O)N([C@H](C)CO)C[C@H]1C
0.7,-0.4,-1.0,CCCNC(=O)N1[C@H](CO)[C@H]2c3ccccc3N(C(=O)Nc3cccc(F)c3)C[C@H]21
-4.6,4.5,9.1,C[C@@H]1CN([C@@H](C)CO)C(=O)CCCn2nncc2CO[C@H]1CN(C)C(=O)c1ccc2ccn(C)c2c1
.,?,.,C[C@@H]1CN([C@@H](C)CO)C(=O)c2c(c3ccccc3n2C)-c2ccccc2CO[C@H]1CN(C)S(=O)(=O)c1ccc(F)cc1
-10.8,-3.8,7.0,CCCNC(=O)N1CC2(C1)[C@@H](c1ccccc1)[C@@H](CO)N2Cc1cccc(Cl)c1
4.7,0.3,-4.3,CNC[C@H]1Oc2ncc(/C=C/c3ccccc3)cc2C(=O)N([C@@H](C)CO)C[C@H]1C
-8.7,0.8,9.6,COc1ccc2c3c(n(C)c2c1)[C@H](CO)N(Cc1cc(F)ccc1F)CC31CCN(C(C)=O)CC1
13.5,12.2,-1.2,CCS(=O)(=O)N1CCCCN2[C@H](CO)[C@@H](c3ccc(-c4ccc(C#N)cc4)cc3)[C@@H]2C1
0.2,3.6,3.4,CNC[C@H]1Oc2ncc(-c3ccccc3C)cc2C(=O)N([C@@H](C)CO)C[C@@H]1C
-0.4,4.3,4.7,CCCN1[C@@H]2c3ccc(C4=CCCC4)c(=O)n3C[C@@H]2[C@@H](CO)[C@@H]1C(=O)NCc1ccccn1

Remaining list, next part.
DUX4 inh control,DUX4 inh,DUX4 inh difference,Compound
1.4,-0.4,-1.7,C[C@H]1CN([C@@H](C)CO)C(=O)c2cc(C3=CCCC3)cnc2O[C@@H]1CN(C)Cc1cccc(F)c1
2.6,7.0,4.4,CCC(=O)N1C[C@H]2[C@@H](c3ccccc31)[C@H](CO)N2C(=O)Nc1ccccc1
-3.4,20.3,23.7,O=C(CN1CCOCC1)N1CC[C@@H]2[C@@H](CO)Nc3ccc(-c4ccccc4F)cc3[C@@H]21
2.5,-2.4,-4.8,CC(C)C#Cc1ccc([C@@H]2[C@@H](CO)N(C(=O)c3ccccn3)[C@H]2C#N)cc1
-1.5,-1.7,-0.2,N#C[C@@H]1[C@@H](c2ccc(-c3cccc(F)c3)cc2)[C@H](CO)N1c1nc(-c2ccccc2)cs1
0.5,7.4,7.0,O=C(NCc1ccncn1)[C@@H]1[C@@H](CO)[C@@H]2Cn3c(ccc(-c4ccncc4)c3=O)[C@@H]2N1CC1CC1
4.0,7.0,3.0,C[C@@H]1CC=CCCNC(=O)[C@H](C)N(C)C(=O)c2ccccc2O1 (mixture of isomers)
2.8,9.8,7.0,O=C(C[C@@H]1CC[C@@H]2[C@H](COC[C@@H](O)CN2C(=O)c2ccccc2F)O1)NCc1ccc(F)cc1
-3.8,7.5,11.3,COc1cccc(-c2ccc3n(c2=O)C[C@@H]2[C@@H](CO)[C@H](C(=O)N(C)C)[C@H]3N2C(=O)c2cnccn2)c1
1.4,6.2,4.7,O=C(O)C[C@H]1C[C@H]2c3cc(NC(=O)Nc4ccc(C(F)(F)F)cc4)ccc3O[C@H]2[C@H](CO)O1

Remaining list, next part
DUX4 inh control,DUX4 inh,DUX4 inh difference,Compound
-4.9,-0.4,4.5,CO[C@@H]1CC[C@H]2CCN(C)C(=O)[C@@H](C)CN(C)C(=O)c3cccc(C#N)c3OC[C@H]1O2
-0.4,2.7,3.2,Cc1noc(C)c1S(=O)(=O)N(C)C[C@H]1OCCCC[C@@H](C)Oc2ccc(NC(=O)CCC(F)(F)F)cc2C(=O)N([C@@H](C)CO)C[C@H]1C
14.7,17.9,3.2,COc1ccc2c3c(n(C)c2c1)[C@@H](CO)N(Cc1nccs1)CC31CN(C(C)=O)C1
3.8,-0.4,-4.2,CCCNC(=O)N1CCC2(CC1)CN(C(=O)c1ccncc1)[C@H](CO)c1[nH]c3cc(OC)ccc3c12
-0.4,20.4,20.7,Cc1cccc(-c2ccc(C3[C@@H]4CN(Cc5cccnc5)C[C@H]3N4)cc2)c1 (some centres not stated)
2.1,2.5,0.4,CC(=O)N1[C@H](CO)[C@@H](c2ccccc2)C12CN(C(=O)Nc1ccccc1F)C2
.,?,.,COc1ccc2c3c([nH]c2c1)[C@@H](CO)N(C(=O)Nc1ccc(F)cc1)CC31CN(C(=O)c2ccccn2)C1
1.2,4.4,3.2,CCCNC(=O)N1CC2(CN(S(=O)(=O)CC)C2)c2c([nH]c3cc(OC)ccc23)[C@H]1CO
.,?,.,O=C(C[C@@H]1CC[C@@H]2[C@H](COC[C@H](O)CN2Cc2ccc(Oc3ccccc3)cc2)O1)N1CCCCC1
.,?,.,CCCC(=O)Nc1ccc2c(c1)OC[C@@H](C)N(CCc1ccccc1)C[C@H](C)[C@@H](OC)CN(C)C2=O

Following part.
DUX4 inh control,DUX4 inh,DUX4 inh difference,Compound
-2.2,-1.4,0.8,CCCN(C[C@@H]1[C@@H](c2ccccc2)[C@H](CO)N1C(C)=O)C(=O)NC(C)C
-4.6,-1.0,3.6,C[C@H](NC(=O)[C@@H]1[C@@H](CO)[C@@H]2Cn3c(cccc3=O)[C@@H]2N1Cc1cccnc1)c1ccccc1
3.3,-0.4,-3.7,CC(C)[C@H]1C(=O)N[C@@H](c2ccc(F)cc2)CC=CC[C@H](C)Oc2ccccc2C(=O)N1C (mixture of isomers)
.,?,.,O=C(Nc1ccc(C(F)(F)F)cc1)Nc1ccc2c(c1)[C@H]1C[C@H](CC(=O)N3CCc4ccccc4C3)O[C@@H](CO)[C@H]1O2
-2.6,-0.5,2.1,C[C@@H]1CN([C@H](C)CO)C(=O)CCCn2cc(nn2)CO[C@H]1CN(C)C(=O)Nc1ccc(N2CCCCC2)cc1
10.7,32.3,21.5,O=C(C1CCC1)N1CCCCN2[C@H](C1)[C@H](c1ccc(-c3ccncc3)cc1)[C@@H]2CO
1.7,-0.1,-1.8,O=C(c1ccc(F)cc1)N1CC2(C1)[C@H](c1ccccc1)[C@H](CO)N2Cc1ccccn1
2.1,-1.0,-3.1,C[C@H]1CCCCO[C@@H](CN(C)S(C)(=O)=O)[C@@H](C)CN([C@@H](C)CO)C(=O)c2cc(N(C)C)ccc2O1
6.2,18.7,12.5,CCCNC(=O)N1CC2(C1)[C@@H](c1ccccc1)[C@@H](CO)N2C(=O)c1ccncc1
11.9,6.1,-5.8,COc1ccc2c3c(n(C)c2c1)[C@H](CO)N(CC1CCOCC1)CC31CN(Cc2nccs2)C1

(next part)
DUX4 inh control,DUX4 inh,DUX4 inh difference,Compound
.,?,.,O=C(c1ccc2c(c1)OCO2)N1CC(=O)N2[C@H](CO)[C@H](c3ccc(C#Cc4ccccc4)cc3)[C@@H]2C1
3.3,6.6,3.3,CCC(=O)N1[C@H](CN(C(C)C)S(C)(=O)=O)[C@H](c2ccccc2)[C@@H]1CO
0.9,-4.2,-5.1,C[C@@H]1CCCCO[C@@H](CN(C)Cc2ccc(C(=O)O)cc2)[C@@H](C)CN([C@@H](C)CO)C(=O)c2cc(NS(=O)(=O)c3ccc(F)cc3)ccc2O1
4.6,8.8,4.2,O=C(C1CCC1)N1CCCCN2[C@@H](CO)[C@@H](c3ccc(C#CC4(O)CCCC4)cc3)[C@@H]2C1
-0.1,3.2,3.4,O=C(O)C[C@@H]1C[C@H]2c3cc(NC(=O)C4CCC4)ccc3O[C@H]2[C@H](CO)O1
.,?,.,O=C(C[C@H]1CC[C@H]2[C@@H](COC[C@H](O)CN2C(=O)Nc2ccc(Cl)cc2)O1)NCC1CCCCC1
2.4,6.3,3.9,C[C@@H]1CCCCO[C@@H](CN(C)S(C)(=O)=O)[C@@H](C)CN([C@H](C)CO)C(=O)c2cc(N(C)C)ccc2O1
-0.8,6.5,7.3,CN(C)CCCNC(=O)[C@H]1[C@H](CO)[C@H]2Cn3c(ccc(-c4ccccc4)c3=O)[C@H]2N1C
4.0,2.5,-1.6,C[C@H](CO)N1C[C@H](C)[C@@H](CN(C)CC2CCCCC2)OCc2cnnn2CCCC1=O
2.6,7.2,4.6,CC(=O)N1[C@@H](CO)[C@@H](c2ccccc2)C12CN(C(=O)Cc1ccccc1)C2

The list goes on.
DUX4 inh control,DUX4 inh,DUX4 inh difference,Compound
0.5,2.0,1.6,Cc1ccc(S(=O)(=O)N2C[C@H]3[C@@H](c4ccccc42)[C@H](CO)N3Cc2cccnc2)cc1
-2.0,-2.1,-0.1,CNC(=O)C[C@@H]1CC[C@@H]2[C@H](COC[C@@H](O)CN2C(=O)c2ccc3c(c2)OCO3)O1
-5.4,5.7,11.2,CCCNC(=O)N1C[C@@H](O)COC[C@H]2O[C@@H](CC(=O)N[C@H]3CCN(Cc4ccccc4)C3)CC[C@@H]21
5.2,7.3,2.1,C[C@H]1CN([C@@H](C)CO)C(=O)c2ccccc2-c2ccccc2CO[C@@H]1CN(C)Cc1ccc(F)cc1
-1.4,-2.4,-1.0,C[C@H](CO)N1C[C@H](C)[C@H](CN(C)C(=O)NC2CCCCC2)OCCCC[C@H](C)Oc2ccc(N(C)C)cc2C1=O
-0.1,-0.4,-0.3,C[C@@H](NC(=O)C[C@@H]1C[C@@H]2c3cc(NC(=O)C4CCOCC4)ccc3O[C@@H]2[C@@H](CO)O1)c1ccccc1
.,?,.,CN1c2ccc(-c3ccc(C#N)cc3)cc2[C@H]2[C@H](CCN2C(=O)C2CCCCC2)[C@@H]1CO
-2.0,4.5,6.4,CN1[C@@H]2c3ccc(C4=CCCC4)c(=O)n3C[C@@H]2[C@@H](CO)[C@@H]1C(=O)NC1Cc2ccccc2C1
-1.7,-7.2,-5.5,O=C(c1ccc(F)cc1)N1CC(=O)N2[C@H](CO)[C@H](c3ccc(C#CC4CCCCC4)cc3)[C@@H]2C1
10.7&1.7,-5.4&17.9,-16.1&16.2,O=S(=O)(c1cccc(F)c1)N1[C@@H]2CNC[C@H]1C2c1ccc(-c2ccccc2)cc1 (some centres not stated)

Next section.
DUX4 inh control,DUX4 inh,DUX4 inh difference,Compound
0.2,7.1,6.9,COCC(=O)N1[C@H](CO)[C@@H](c2ccccc2)C12CN(C(=O)c1cccc(F)c1)C2
-0.6,4.5,5.1,COCC(=O)Nc1ccc2c(c1)[C@H]1C[C@H](CC(=O)N[C@@H](C)c3ccccc3)O[C@@H](CO)[C@H]1O2
3.6,4.9,1.4,CCN(C[C@H]1N[C@H](CO)[C@@H]1c1ccc(-c2ccccc2)cc1)C(=O)COC
-5.7,1.6,7.3,COc1ccc(-c2ccc3c(c2)[C@@H]2[C@@H](CCN2S(=O)(=O)c2ccc(OC)cc2)[C@H](CO)N3C)cc1
-20.8,-9.5,11.3,CN1c2ccc(-c3ccccc3)cc2[C@@H]2[C@@H](CCN2C(=O)c2ccccc2)[C@H]1CO
-3.0,0.5,3.5,CNC[C@@H]1Oc2cc(-c3cccnc3)ccc2S(=O)(=O)N([C@@H](C)CO)C[C@H]1C
2.2,2.6,0.4,Cc1noc(C)c1NC(=O)Nc1ccc2c(c1)CC(=O)N([C@@H](C)CO)C[C@H](C)[C@@H](CN(C)C(=O)NC1CCCCC1)O2
10.0,1.1,-8.9,CCS(=O)(=O)N1CCCCN2[C@@H](CO)[C@@H](c3ccc(-c4ccc(C#N)cc4)cc3)[C@@H]2C1
-5.4,6.2,11.6,C[C@H]1CN([C@@H](C)CO)C(=O)CCCn2cc(nn2)CO[C@@H]1CN(C)C(=O)NC1CCCCC1
4.8,10.3,5.5,O=C(C[C@@H]1CC[C@@H]2[C@H](COC[C@@H](O)CN2C(=O)c2cnccn2)O1)NCc1ccc(F)cc1

These rows are one share of the data; rates above refer to the full screens.
